# Source: PubChem BioAssay (National Center for Advancing Translational Sciences (NCATS))
# Methyltransferases = Primary Screen for Target Class Profiling of Small Molecule Inhibitors of Methyltransferases; 25,000 compounds, 3.9% hits; purified enzyme, MTase-Glo SAH luminescence; hits give low values; AID 1745853, 2022; calls only at 40 µM; active = -50% or lower on at least one of six enzymes; inconclusive = the cases between; inactive = as a rule above -30% on all six;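 further: enzymes were COMT GAMT GNMT HNMT NNMT and PNMT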
#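 Each enzyme was reacted with SAM and its substrate, with compounds tested once at 40 uM; SAH formed was read by MTase-Glo luminescence.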
# Calls only; i = inactive; u = inconclusive; + = active, no number; ! = not active in a repeat. On the % scale 0 is the no-effect control and ±100 the full control effect.
SMILES,Methyltransferases
O=[N+]([O-])c1ccc(CNc2nc(NCc3cccc(C(F)(F)F)c3)nc3nc[nH]c23)cc1,+!
COc1cc(C(N)=O)nc(-c2ccccn2)c1O,i
CC(=O)O[C@@H]1[C@@H](O)[C@H](O[C@@H]2[C@@H](O)[C@@H](O)[C@H](O[C@H]3[C@H](O[C@H]4[C@H](O[C@H]5CC[C@@]6(C)C(CC[C@]7(C)C6CC=C6[C@@H]8CC(C)(C)CC[C@]8(C(=O)O)CC[C@]67C)[C@]5(C)CO)O[C@H](CO)[C@@H](O)[C@@H]4O)OC[C@@H](O)[C@@H]3O)O[C@H]2C)OC[C@H]1O (some centres undefined),i
COc1cc(C2Oc3c(OC)cc(CCCO)cc3C2CO)ccc1O[C@H]1O[C@H](C)[C@@H](O)[C@H](O)[C@@H]1O (some centres undefined),i
Cc1nc(NCCn2ncc3ccccc3c2=O)cc(C2CC(O)C2)n1 (centres undefined),i
CC(C)CN1C(=O)COC[C@@H]1[C@H](O)c1ccc(NC(=O)c2ccc3c(c2)OCO3)cc1,i
CCc1ccccc1NC(=O)CSc1nnc2n(Cc3ccc(C)cc3)c(=O)c3ccccc3n12,i
CNc1nc(Nc2ccc(C(=O)N3CCOCC3)cc2OC)nc2[nH]cc(Cl)c12,i
CCCN1C(=O)c2cc3sc(CC)cc3n2CC1(C)C(=O)NC1CCC(C)CC1 (centres undefined),i
COc1ccccc1C(=O)N1CCN(c2nccc(Nc3ccccc3Cl)n2)CC1,i
CC(C)CCNC(=O)C1c2c(n(C)c3ccccc23)SCC(=O)N1CCc1ccc(Cl)cc1 (centres undefined),i
Cc1ccc(CSc2nnc3n(C)c(=O)c4ccc(C(=O)NC5CCCC5)cc4n23)cc1,i
CCN(CC)c1nc2c(-c3cccc(Br)c3)nnn2c2ccccc12,i
CN1CCN([C@H]2[C@@H]3OC[C@@H](O3)[C@@H](NCc3ccc(-c4ccccc4)cc3)[C@@H]2O)CC1,i
CN(C)Cc1cn(C[C@H]2C[C@@H](NC(=O)Nc3ccc4c(c3)OCCO4)[C@H](O)[C@@H]2O)nn1,i
CCCn1c(=O)c2ccc(C(=O)NC3CCCC3)cc2n2c(SCC(=O)NC(C)(C)C)nnc12,i
CC1CCCC(SCC(O)C(=O)O)CC(=O)c2c(O)cc(O)cc2CC(=O)O1 (centres undefined),i
COC(=O)c1cc2n(n1)CC(C)(C(=O)NC1CCCCCC1)N(Cc1cccc(C)c1)C2=O (centres undefined),i
C=CCn1c(=O)c2ccc(C(=O)NC(C)C)cc2n2c(=O)n(CC(=O)Nc3cc(C)ccc3C)nc12,i
CC1CCN(S(=O)(=O)c2ccc3c(ccn3CCC(=O)N3CCCCC3)c2)CC1,i
COc1ccc2cc3n(c2c1)CC(C)(C(=O)NCC1CCCO1)N(Cc1ccccc1C)C3=O (centres undefined),i
CC(C)=CC/C=C(\C)[C@H]1CC[C@]2(C)[C@@H]1[C@H](O)C[C@@H]1[C@@]3(C)CC[C@H](O)C(C)(C)[C@@H]3[C@@H](O[C@@H]3O[C@H](CO)[C@@H](O)[C@H](O)[C@H]3O)C[C@]12C,i
CCCn1c(=O)c2ccc(C(=O)NCC(C)C)cc2n2c(=O)n(CC(=O)N(C)c3ccc(F)cc3)nc12,i
COc1cccc(Cn2nc3n(CCC(C)C)c(=O)c4ccc(C(=O)NC(C)C)cc4n3c2=O)c1,i
c1ccc(CN(Cc2ccoc2)[C@@H]2C[C@@H]3CO[C@H](c4ccccc4)C[C@@H]3C2)cc1,i
# Other records
SMILES,Methyltransferases
CCCn1c(=O)c2ccc(C(=O)NC3CCCCC3)cc2n2c(=O)n(CC(=O)NC(C)CC)nc12 (centres undefined),i
CN(Cc1cnccn1)C(=O)C1CCCN(C2CCN(C(=O)C3CC3)CC2)C1 (centres undefined),i
CCC1(C(=O)NCCc2ccccc2)CCCCC(=O)N1 (centres undefined),i
O=C1CN(Cc2ccccc2Cl)S(=O)(=O)c2ccccc2N1Cc1ccccc1F,i
COC(=O)c1cc2n(n1)CC(C)(C(=O)NC1CCCCC1)N(c1cccc(F)c1)C2=O (centres undefined),i
CCCN(CCC)CCCN1C(=O)c2cc3oc(C)cc3n2CC1(C)C(=O)NC1CCCCCC1 (centres undefined),i
O=C(Nc1ccc(Cl)cc1Cl)c1cnn2ncccc12,i
COC(=O)c1ncn2c1C(=O)N(c1ccc(C(C)C)cc1)C(C)(C(=O)NC1CCCC1)C2 (centres undefined),i
COc1cc2occc2c(O[C@@H]2O[C@H](CO)[C@@H](O)[C@H](O)[C@H]2O)c1CCC(=O)O,i
COc1ccc(-c2cc3n(n2)CC(C)(C(=O)NC2CCCCC2)N(Cc2cccs2)C3=O)cc1 (centres undefined),i
COc1cccc(OC)c1OCCNCC1CSc2ccccc2O1 (centres undefined),i
CCCCc1nn(CC(=O)N2CCCC2c2nc(C3CC3)no2)c(=O)n1CC (centres undefined),i
COCCCNc1nc2c(-c3cccc(C)c3)nnn2c2ccccc12,i
O=C(c1ccc(CCC2COc3ccccc3O2)cc1)N1CCCCC1 (centres undefined),i
CC(=O)NC1(C)CCN(Cc2ccc(-c3ccc([S+](C)(=O)[O-])cc3)cc2)C1 (centres undefined),i
CC1(C(=O)NCc2ccc(F)cc2)Cn2cnc(C(=O)NCCN3CCOCC3)c2C(=O)N1C1CC1 (centres undefined),i
CCC(C)NC(=O)c1ccc2c(=O)n(C)c3nn(CC(=O)c4ccc(Cl)cc4)c(=O)n3c2c1 (centres undefined),i
CC1CCC(NC(=O)C2(C)Cn3c(ccc3-c3ccco3)C(=O)N2Cc2cccc(Cl)c2)CC1 (centres undefined),i
CN1CC[C@H]2CN(C(=O)C3(Cn4ccnc4)CC3)C[C@@]2(C(=O)O)C1,i
COc1nc2ccc(Br)cc2cc1[C@@H](c1ccccc1)[C@@](O)(CCN(C)C)c1cccc2ccccc12,i
CC(CCc1ccccc1)N1C(=O)c2cc3occc3n2CC1(C)C(=O)NC1CCCCCCC1 (centres undefined),i
COC[C@H]1NC(=O)CC[C@H]1C(=O)NCCCc1ccccc1,i
CCc1ccc(CN2CCN(c3ccc(C(N)=O)cn3)CC2)nc1,u
CN1CCN(c2cccc(Nc3nc4c(-c5ccc(S(C)(=O)=O)cc5)cccn4n3)c2)CC1,u
CCCn1cnc2c(NCc3ccccc3)nc(N[C@H](CC)CO)nc21,i
# (further entries)
SMILES,Methyltransferases
O=C1N(CC2CCCCN2)CCN1c1ccccc1 (centres undefined),i
Cc1ccc(C(=O)Cn2nc3n(CC(C)C)c(=O)c4ccc(C(=O)NCC(C)C)cc4n3c2=O)cc1,i
COc1ccc(OC)c(C2C(C#N)=C(N)Oc3n[nH]c(-c4ccc5ccccc5c4)c32)c1 (centres undefined),i
CN1CCN(Cc2cccc(OCC(O)CN3CCOCC3)c2)CC1(C)C (centres undefined),i
O=C([C@@H]1C[C@H](Oc2ccccc2)CN1C(=O)Nc1ccccc1F)N1CCOCC1,i
CCC(C)N1C(=O)c2cc3sccc3n2CC1(C)C(=O)NC1CCCCCCC1 (centres undefined),i
O=CN1CCCC(n2cnc3cccnc32)C1 (centres undefined),i
COCCCN1C(=O)c2c(NC(C)=O)c3cc(OC)ccc3n2CC1(C)C(=O)NC1CCCCC1 (centres undefined),i
CC1(C(=O)NC2CCCCCC2)Cn2c(cc3sccc32)C(=O)N1C1CCCC1 (centres undefined),i
O=C(Cn1nc2nc(Nc3ccc(F)cc3)ccn2c1=O)NCc1ccc2c(c1)OCO2,i
O=c1[nH]c(N2CCc3ccccc3C2)nc2c1CCN(Cc1cccs1)CC2,i
COc1ccc(CN2C(=O)c3cc4ccccc4n3CC2(C)C(=O)NCc2ccccc2)c(OC)c1 (centres undefined),i
CC(CCc1ccccc1)NC(=O)CCn1ccn2nc3c(c2c1=O)CCCC3 (centres undefined),i
CCn1cc(CN2CCN(C(=O)CCc3ccccc3)CC2)ccc1=O,i
CC(=O)NC1(C)CCCN(Cc2cc(-c3c(C)noc3C)cs2)C1 (centres undefined),i
COC(=O)c1ncn2c1C(=O)N(c1ccc(C)c(C)c1)C(C)(C(=O)NCCCOC(C)C)C2 (centres undefined),i
Cc1noc(C)c1CC(=O)N1CC(=O)N(C2CCCCC2)CC(OCc2ccccc2)C1 (centres undefined),i
Cc1ccccc1C(=O)N1CCC2(CC1)CC(c1cccc(C(F)(F)F)c1)=NO2,i
CC1=C2C(=O)O[C@@H](c3ccoc3)[C@]2(C)CCC1,i
COc1ccc(OC)c(NC(=O)Cc2cccn2-c2ccc(Cl)cc2)c1,i
C[S+](=O)([O-])NCCNC(=O)c1cccc(-c2ccc(C(F)(F)F)cc2)c1,i
Cc1ccc(S(=O)(=O)c2nnn3c2nc(N2CCOCC2)c2ccccc23)cc1,i
Cc1ccc(CCNS(=O)(=O)c2ccc3[nH]c4c(c3c2)CCCC4)cc1,i
O=Nc1c(-c2c(O)[nH]c3cc(Br)ccc23)[nH]c2ccccc12,u
Cc1cccc2c1cnn2C(=O)CCC(=O)N1CCN(C2CCCCC2)CC1,i
# The listing continues.
SMILES,Methyltransferases
Clc1ccc(-c2nnn3c2nc(N2CCCCC2)c2ccccc23)cc1,i
CCS(=O)(=O)c1cccc(-c2cc(C(=O)NC3CCN(C)CC3)c(C)c3[nH]c4ncc(C)cc4c23)c1,+
Cc1ccc(NC(=O)O[C@@H]2CC[C@]3(C)C(CC[C@@H](O)[C@H]3CC(=O)NCc3ccccc3)[C@]2(C)CO)cc1 (some centres undefined),i
CN(C)[C@@H]1CN(C(=O)c2cc3ccccc3[nH]2)CC[C@@H]1CO,i
CC1(C(=O)NCc2ccccc2Cl)Cn2cnc(C(=O)NCc3ccc(F)cc3)c2C(=O)N1C1CC1 (centres undefined),i
O=C(C1CN(C2CCCC2)C(=O)N1)N1CCN(c2ncccn2)CC1 (centres undefined),i
CC(=O)O[C@@H]1C(=O)C(C)=C(CCC(C)CC(=O)O)[C@@]2(C)CCCC(C)(C)C12 (some centres undefined),i
CC(C)CCN1C(=O)c2cc3occc3n2CC1(C)C(=O)NC1CCCCCC1 (centres undefined),i
OCC(O)c1cc2n(n1)CCN(Cc1ccccc1Cn1cccn1)C2 (centres undefined),i
NC[C@@](O)(c1ccc(Cl)cc1)c1ccc(-c2cn[nH]c2)cc1,+
CC1(C(=O)NC2CCCCC2)Cn2c(cc3sccc32)C(=O)N1CC1CCCO1 (centres undefined),i
CCOC(=O)c1cccc(N2C(=O)c3cc4ccccc4n3CC2(C)C(=O)NCCC(C)C)c1 (centres undefined),i
COc1ccc(CNC(=O)c2cc3n(n2)CC(C)(C(=O)NC2CCCC2)N(C)C3=O)c(OC)c1 (centres undefined),i
CC(=O)OC1C(O)C(C)=C(CCC(C)CC(=O)O)C2(C)CCCC(C)(C)C12 (centres undefined),i
CC1=C(C(=O)O[C@@H]2O[C@H](COC3OCC(O)C(O)C3O)[C@@H](O)[C@H](O)[C@H]2O)C(C)(C)CCC1 (some centres undefined),u
O=C1CC(c2noc(-c3cccs3)n2)CN1C1CCCCC1 (centres undefined),i
COc1ccc(CNC(=O)Cn2c(=O)oc3cc(S(=O)(=O)N4CCCC4)ccc32)cc1,i
Cc1ccccc1N1C(=O)c2cc3occc3n2CC1(C)C(=O)NC1CCCCC1 (centres undefined),i
CCOC(=O)c1cc2n(n1)CC(C)(C(=O)NC1CCCCC1)N(c1cc(Cl)ccc1OC)C2=O (centres undefined),i
CCCN1C(=O)c2c(C(=O)NCc3ccccc3OCC)ncn2CC1(C)C(=O)NCc1ccc(C)cc1 (centres undefined),i
CCc1ccccc1NC(=O)c1ncn2c1C(=O)N(C1CC1)C(C)(C(=O)NCc1ccccc1OC)C2 (centres undefined),i
Cc1ccc(CN2CCC3OCCN(Cc4ccccc4)C(=O)C3C2)o1 (centres undefined),i
COc1cc(F)ccc1-c1cc(-c2ccc(=O)[nH]c2)c2cncn2c1,+
CCCCc1ccc(NC(=O)CN2C(=O)NC3(CCS(=O)(=O)CC3)C2=O)cc1,i
CNC(=O)c1ccc(N2C(=S)N(c3cnc(C#N)c(C(F)(F)F)c3)C(=O)C23CCC3)cc1F,i
O=C(c1cnc2c(c1)CCCC2)N1CCCn2nc(CO)cc2C1,i
CCOC(=O)c1cc2n(n1)CC(C)(C(=O)NC1CCCCC1)N(c1ccc(Cl)cc1C)C2=O (centres undefined),i
NC(=O)c1ccccc1,i
CCn1cc(S(=O)(=O)N2CCOc3ccc(CN4CCCCCC4)cc3C2)cn1,u

# Not all compounds are listed, so the mix of outcomes need not match the whole.
